Source: PubChem (National Center for Advancing Translational Sciences (NCATS))
HPGD block: blocks human HPGD enzyme activity | purified HPGD, NADH fluorescence kinetic, PGE2 substrate | Potency, µM, for inactives: at the highest dose activity change, negative = inhibition, actives largely listed as inhibitors | P15428 | actives 4.3% (n = 150,000); active = well fitted inhibition curve with a large enough effect (not every such curve was filed as active); inconclusive = small, poorly fitted or top-dose-only effect, or another doubt; inactive = no such curve, though single readings can be large or run the other way;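 note: top concentration of the series not given in the record; plate controls included wells without enzyme; inactives centre near -10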
Target sequence (P15428 whole entry, looked up): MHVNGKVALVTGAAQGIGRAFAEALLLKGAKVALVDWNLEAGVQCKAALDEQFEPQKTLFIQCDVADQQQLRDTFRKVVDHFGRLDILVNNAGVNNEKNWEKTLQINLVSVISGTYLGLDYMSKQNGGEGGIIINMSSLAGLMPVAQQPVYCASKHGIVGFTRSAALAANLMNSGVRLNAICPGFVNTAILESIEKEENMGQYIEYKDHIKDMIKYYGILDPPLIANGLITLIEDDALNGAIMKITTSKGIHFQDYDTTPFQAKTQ
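20 nM HPGD preincubated 15 min at room temperature with compound in 50 mM Tris-HCl pH 8, 0.01% Tween 20. Started with 1 mM NAD+ and 30 uM prostaglandin E2; NADH fluorescence (360/450 nm) read 5 times over 30-s intervals, last minus first.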
Active calls of the source: *; ? = inconclusive; & = joins results of further samples. % is set by controls: 0 for no effect and ±100 for the full control effect; potency is the fitted concentration of half-maximal effect.

A first look:
SMILES	HPGD block
CC(C)(C)Cc1nc(-c2ccc(Cl)cc2)no1	-4%
Cc1ccccc1NS(=O)(=O)c1ccc(NC(=O)c2ccco2)cc1	-19%
CCCCC(CC)CN=C(N)NC(N)=NCCCCCCN=C(N)NC(N)=NCC(CC)CCCC (stereo unspecified)	1%
CN1CCN(CCCNC(=O)c2cn(C)c3ccc(S(=O)(=O)N(C)C)cc3c2=O)CC1	2%
Cc1cc(C(=O)NCc2ccco2)on1	-6%
COc1ccc(NC2(c3ccc(Cl)cc3)C(=O)c3ccccc3C2=O)cc1	-9%

This part in full, from the first entry:
SMILES	HPGD block
CC(C)(C)Cc1nc(-c2ccc(Cl)cc2)no1	-4%
Cc1ccccc1NS(=O)(=O)c1ccc(NC(=O)c2ccco2)cc1	-19%
CCCCC(CC)CN=C(N)NC(N)=NCCCCCCN=C(N)NC(N)=NCC(CC)CCCC (stereo unspecified)	1%
CN1CCN(CCCNC(=O)c2cn(C)c3ccc(S(=O)(=O)N(C)C)cc3c2=O)CC1	2%
Cc1cc(C(=O)NCc2ccco2)on1	-6%
COc1ccc(NC2(c3ccc(Cl)cc3)C(=O)c3ccccc3C2=O)cc1	-9%
CCOc1ccccc1CNCCN1CCOCC1	-9%
CCOC(=O)c1cc(C#N)c(Oc2cccc(C(F)(F)F)c2)nc1-c1ccccc1	-18%
O=C(CCn1cccc1)NCc1ccccc1	?
CCCN(CCC)CCCNC(=O)c1cn(CCOC)c(=O)c2c1c1ccccc1n2C	?
O=C1c2cc(S(=O)(=O)NCCCO)ccc2-c2ccc(S(=O)(=O)NCCCO)cc21	-2%
CCOC(=O)C1=C(C)NC(=S)NC1c1ccc(-c2ccc(Cl)cc2)o1 (stereo unspecified)	-10%
COCCN(C(C)=O)c1nnc(-c2cnccn2)s1	?
CCOC(=O)c1c(CN(C)C)n(-c2ccccc2)c2cc(Br)c(OC)cc12	-9%
Cc1cc(C)cc(N(CC(=O)Nc2cccc(C)n2)S(=O)(=O)c2c(C)noc2C)c1	-4%
Cc1ccc2[nH]c3c(c2c1)CN(C)CC3	-16%
CCS(=O)(=O)N1CCCC(C(=O)NCc2ccc(C)cc2)C1 (stereo unspecified)	2%
Cc1nnc(NC(=O)C2COc3ccccc3O2)s1 (stereo unspecified)	-5%
CCOc1cc(/C=C2/NC(=S)NC2=O)ccc1OCc1ccc([N+](=O)[O-])cc1	-9%
Cn1c(Cc2ccccc2)n[nH]c1=S	-11%
C1CCN2C[C@@H]3C[C@@H](CN4CCCC[C@H]34)[C@H]2C1	-10%
O=C1CC(N2CCSCC2)C(=O)N1CCc1ccccc1 (stereo unspecified)	-11%
COc1ccc(Cl)cc1Nc1nc(C)cc(C)c1C(N)=O	?
CCCCCNC(=O)CCCCn1c(=O)[nH]c2cc(OCC)c(OCC)cc2c1=O	-16%
C=C(C)CSc1nc(N)c2c(C)c(C)sc2n1	-4%
O=C(CCC1COc2ccccc2O1)Nc1cccnc1 (stereo unspecified)	-4%
COC(=O)c1c(NC(=O)CCc2ccc(C)o2)sc(C)c1C	?
CC1CCCN(C(=O)Cc2cn(Cc3cccc(Cl)c3)c3ccccc23)C1 (stereo unspecified)	-22%
CCOCC(=O)N1CCc2ccccc21	-1%
Cc1cc(N2CCN(c3cccc(C)c3C)CC2)nc(-c2ccccc2)n1	-7%
CCCN(CCC)CCNC(=O)CS(=O)Cc1nc(-c2ccc(C)cc2)oc1C (stereo unspecified)	-6%
c1ccc(CSc2ccc(-c3ccc4c(c3)OCO4)nn2)cc1	-10%
CCCNC(=O)N1CCC(C(=O)c2cccc(F)c2)CC1	-1%
O=C(/C=C/c1ccc(Cl)cc1Cl)n1cccn1	-21%
CCOC(=O)CSc1c(-c2ccc(Cl)cc2)[nH]c2ccccc12	-7%
CN(C)Cc1ccc(O)c(CCc2ccccc2)n1	-7%
CCOC(=O)CC1=C(C#N)C(c2cccnc2)C(C(=O)OCC)=C(N)O1 (stereo unspecified)	-5%
CCc1ccc(CN(C(=O)c2cc3ccccc3oc2=O)C2CCS(=O)(=O)C2)cc1 (stereo unspecified)	-12%
Cc1ccc(/C=C/C(=O)N2CCC(Cc3ccccc3)CC2)cc1	-7%
Cc1ccc(-n2c(SCC(=O)NCCN3C(=O)CSC3=O)nnc2-c2ccccc2)cc1C	-2%
COC(=O)c1ccc(CSc2nc3cc(Cl)ccc3o2)cc1	-21%
CCOC(=O)N1CCN(C(=O)Nc2ccccc2Cl)CC1	-4%
CCOC(=O)c1nc(C)n(-c2cc(Cl)cc(Cl)c2)n1	-1%
O=C(CSc1nnc(CNc2ccc(F)cc2)n1Cc1ccco1)NC1CC1	-8%
NS(=O)(=O)c1ccc(Nc2nc(-c3ccc(O)cc3O)cs2)cc1	?
COc1cc(NC(=O)c2cc3c(C)nc4ccccc4c3o2)cc(OC)c1OC	-11%
CCOc1ccc(N2C(=O)c3cccnc3C2Nc2ccc(F)cc2)cc1 (stereo unspecified)	-17%
CCc1c(C(=O)Nc2cc(C)ccc2OC)[nH]c(C)c1C(C)=O	-16%
C/C(=N\N=C1\NC(=O)CC(C(=O)O)S1)c1cccs1 (stereo unspecified)	-21%
CCN(CC)CCCNC1CCS(=O)(=O)C1 (stereo unspecified)	3%
O=c1[nH]c(C2C3CC4CC(C3)CC2C4)nc2ccccc12 (stereo unspecified)	-8%
Cc1ccc(CNC(=O)Cn2cc(C(F)(F)F)ccc2=O)cc1	-16%
CCn1c(CNc2ccc(F)cc2)nnc1SCC(=O)OC1CCCCC1	16µM*
CCCN1C(=O)C(Cc2nc3ccccc3c(=O)n2-c2ccccc2)c2cc(C)ccc21 (stereo unspecified)	-10%
CCCCOc1cccc(C(=O)N(Cc2cccs2)C2CCS(=O)(=O)C2)c1 (stereo unspecified)	-5%
COc1cc(/C=C(\NC(C)=O)C(=O)NC(C)(C)CC(C)(C)C)ccc1OC(C)=O	-8%
c1ccc(OCc2nn3c(Cn4cnc5ccccc54)nnc3s2)cc1	11µM*
COc1ccc(C(c2nnnn2Cc2ccccc2)N2CCN(C(=O)c3ccco3)CC2)cc1 (stereo unspecified)	1%
CCC1(C)Cc2c(sc3nnn(CC(=O)Nc4ccc(C)cc4)c(=O)c23)CO1 (stereo unspecified)	-2%
Cc1cc(C)n2nc(CCc3nc4nc(C)cc(C)n4n3)nc2n1	-5%

Going on with the list:
SMILES	HPGD block
CCC1CCCCN1C(=O)Cn1c(=O)oc2ccccc21 (stereo unspecified)	-11%
COc1ccc(/C=N/NC(=S)NC2CCS(=O)(=O)C2)cc1OC (stereo unspecified)	?
CCOC(=O)N1CCC(NC(=O)Cn2ncc3c4ccccc4n(C)c3c2=O)CC1	?
COc1ccc(N2C(=O)CCC2(C#N)c2ccc(OC)cc2)cc1 (stereo unspecified)	-8%
O=C(COC(=O)c1ccco1)Nc1ccc2c(c1)OCO2	-12%
CC(=O)Nc1ccc(Oc2ncccn2)c(Cl)c1	-10%
Cc1cc(N/N=C/c2ccccc2Br)nc2ccccc12	-14%
Cc1ccc(C(=O)CN(Cc2ccccc2)C2=NCCS2)cc1	-1%
Cc1c(C)n(C(=O)CSc2ncn[nH]2)c2ccccc12	-6%
COc1cc(NC(=O)CCC(=O)O)nc(OC)n1	-6%
CCN(C(=O)COc1cc(=O)n(CC)c2ccccc12)c1cccc(Cl)c1	-3%
COC(=O)c1cccc(NC(=O)COC(=O)CSc2nc(C)cc(C)n2)c1	-10%
Cc1ccc(S(=O)(=O)N2CCN(CC(=O)N/N=C\C(Cl)=C\c3ccccc3)CC2)cc1	-4%
CCOC(=O)Cn1c(S(=O)(=O)Cc2ccc(F)cc2)nc(-c2ccccc2)c1-c1ccccc1	-14%
Cc1cccc(NCN2C(=O)c3ccncc3C2=O)n1	-3%
CS(=O)(=O)N1CCC(C(=O)Nc2ccc(F)cc2F)CC1	-9%
CCOC(=O)c1c(C)[nH]c(C)c1C(=O)CSc1nnc(-c2ccco2)n1Cc1ccccc1	-7%
Nc1n[nH]c2c1C1(CCCCC1)Cc1ccccc1-2	-14%
COc1ccc(CNC(=O)C2CCCN2S(=O)(=O)c2ccc(S(=O)(=O)N(C)C)cc2)cc1 (stereo unspecified)	-8%
COc1cccc(-c2nc3ccccc3s2)c1	-8%
COc1ccc2cc1Oc1ccc(cc1)C[C@H]1c3cc(c(OC)cc3CCN1C)Oc1c(OC)c(OC)cc3c1[C@@H](C2)N(C)CC3	-6%&-5%
COC(=O)C1(C)C=CCN1C(=O)c1ccccc1 (stereo unspecified)	-11%
Cc1ccc(S(=O)(=O)NC2CCC(C(=O)O)CC2)cc1 (stereo unspecified)	0%
COc1cccc(OC)c1OCCCOc1ccc(C)cc1Br	22µM*
Cc1ccc(S(=O)(=O)n2c([N+](=O)[O-])cnc2C)c(C)c1C	-13%
Cc1cc(C(=O)NCCC(c2ccccc2)c2ccccc2)c(C)o1	-10%
CC(=O)NC(Cc1ccccc1)c1ccc2c(c1)OCCCO2 (stereo unspecified)	-6%
CCOC(=O)CN(C(=O)CSc1nnc(C)n1-c1ccccc1)c1ccccc1	-20%
O=C(NC(=S)NCCN1CCOCC1)c1ccccc1Cl	-4%
CCOC(=O)c1c(Nc2ccccc2)sc(/C=C2\C=Nc3ccccc32)c1O	-6%
CN(C)S(=O)(=O)c1cccc(NC(=O)COC(=O)c2cccc(S(=O)(=O)N3CCc4ccccc4C3)c2)c1	0%
COC(=O)C1=C(C)N(c2ccc(C(=O)OC)cc2)C(=O)C1	-1%
CCn1c(SCC(=O)Nc2ccccc2N2CCCCC2)nc2c1c(=O)n(C)c(=O)n2C	-6%
COC(=O)c1c(C)[nH]c(O)c1C=Nc1ccc(C(C)C)cc1	25µM*
c1ccc2c(c1)CCN(CCCNc1nc3ccccc3n3cnnc13)C2	-12%
COC(=O)[C@@H]1C[C@@H]2CC[C@@H](O)C[C@@H]2N1Cc1ccc(N2CCN(C)CC2)cc1	-3%
Cc1ccc(C(=O)OCC(=O)Nc2ccc3c(c2)OCO3)cc1S(=O)(=O)N1CCOCC1	-4%
O=C(Cn1nnc(-c2ccccc2NC(=O)c2cccs2)n1)Nc1ccccc1	?
CC1CC(=O)c2cnc(NCc3ccco3)nc2C1 (stereo unspecified)	-18%
Cc1cccc(OCCCC(=O)Nc2ccc(S(N)(=O)=O)cc2)c1C	-2%
O=C(NCCC1=CCCCC1)C1CCC(CNS(=O)(=O)c2ccccc2)CC1 (stereo unspecified)	-13%
Cc1ccc(NC(=O)c2sccc2SCc2cccc(C(F)(F)F)c2)cc1	-26%
CC(=O)n1nc(-c2cccc(C)c2)nc1SCC(=O)Nc1ccccc1	-18%
COc1ccccc1NC(=O)CCC(=O)O	-10%
COC(=O)CC(NS(=O)(=O)c1cccs1)c1cccc2ccccc12 (stereo unspecified)	-3%
COc1ccc(/C=C2\CCCc3c2nc2ccccc2c3C(=O)OCC(=O)c2c(N)n(C)c(=O)n(C)c2=O)cc1	-3%
CS(=O)(=O)N1CCC(C(=O)N2CCc3ccccc3C2)CC1	-6%
CCOC(=O)c1ccc(NC(=O)c2ccccc2N(C)S(=O)(=O)c2ccccc2)cc1	-6%
COc1ccc(-n2c(COc3cccc(C)c3)nnc2SCC(=O)NCc2ccco2)cc1	-12%
COc1ccc(NC(=O)c2cccnc2SC)cc1S(=O)(=O)N1CCCCC1	-10%
CN(C)CCOc1cccc(Cl)c1	-5%
CC1(C)CC(=O)N(Cc2ccccc2)C(=O)C1	0%
O=C(Cn1[nH]c(=O)c2ccccc2c1=O)Nc1ccc(-c2nnc3n2CCCCC3)cc1	3.5µM*
O=c1c(O)c(-c2ccccc2)oc2cccc(O)c12	?
C[C@@H]1NC(=O)[C@H](CC(N)=O)NC(=O)c2cc([N+](=O)[O-])cc(I)c2OCC[C@@H](C(=O)NC(CC(=O)O)C(N)=O)NC1=O (stereo partly specified)	1%
COC(=O)[C@@H](NC(=O)NC(C)CCc1ccccc1)C(C)C (stereo partly specified)	-7%
CCN(CC(=O)N1CCN(C)CC1)S(=O)(=O)c1ccc(Cl)cc1	-8%
CC(C)(C)c1ccc(NC(=O)CSc2nnc(-c3n[nH]c4ccccc34)o2)cc1	-18%
Cc1cc(C)cc(N(C(=O)c2ccccn2)C(C(=O)NC2CCCCC2)c2cccs2)c1 (stereo unspecified)	-2%
CCOc1ccc(N2C(=O)CC(N)C2=O)cc1 (stereo unspecified)	40µM*

Already shown: entries from further up.
SMILES	HPGD block
O=C(NCCC1=CCCCC1)C1CCC(CNS(=O)(=O)c2ccccc2)CC1 (stereo unspecified)	-13%
Cc1ccc(NC(=O)c2sccc2SCc2cccc(C(F)(F)F)c2)cc1	-26%
CC(=O)n1nc(-c2cccc(C)c2)nc1SCC(=O)Nc1ccccc1	-18%
COc1ccccc1NC(=O)CCC(=O)O	-10%

Continued:
SMILES	HPGD block
O=c1c2[nH]c3ccccc3c2ncn1CCN1CCOCC1	-12%
CCN(CC)S(=O)(=O)c1ccc(OC)c(NC(=S)Nc2cccc(C)c2)c1	-14%
CCCN=C(N)/C(C(=O)OCC)=C(\O)c1ccc(OC)cc1	-14%
COc1cccc(C(=O)NC2CC3CCCC(C2)N3CC(=O)Nc2ccccc2)c1 (stereo unspecified)	-23%
N#CC1=C(N)Oc2c(O)cc3ccccc3c2C1c1ccsc1 (stereo unspecified)	-2%
C=CCn1c(SCc2cccc3ccccc23)nnc1-c1cccnc1	-3%

Four of these compounds in another layout:
molecule | HPGD block
COc1cccc(OC)c1OCCCOc1ccc(C)cc1Br | 22µM*
Cc1cc(C(=O)NCCC(c2ccccc2)c2ccccc2)c(C)o1 | -10%
O=C(NC(=S)NCCN1CCOCC1)c1ccccc1Cl | -4%
Cc1ccc(CNC(=O)Cn2cc(C(F)(F)F)ccc2=O)cc1 | -16%

Looked up above.
Reading of CN1CCN(CCCNC(=O)c2cn(C)c3ccc(S(=O)(=O)N(C)C)cc3c2=O)CC1 in HPGD block: 2%
Reading of CC1(C)CC(=O)N(Cc2ccccc2)C(=O)C1 in HPGD block: 0%

An excerpt; count on the stated rates, not on these rows.
